RE007 growth inh: less growth of the S. pombe RE007 Vpr strain; hit rate 0.21% among 360,000; Potency, µM (titrated, usually from 92.2 µM), inactives show at the highest dose activity change, negative = less growth; S. pombe RE007 Vpr strain, BacTiter-Glo ATP luminescence, 24 h; control for the full effect not named in the record; active = well fitted falling curve with a large enough effect; inconclusive = small, poorly fitted or top-dose-only effect; inactive = no such curve, though single readings can be large or run the other way;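 note: % is set by controls: 0 for no effect and ±100 for the full control effect; nearly all actives have a fitted effect of over 50% in size; the assay follows cell death caused by Vpr and the record does not say whether a fall means rescue or toxicity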
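Fission yeast RE007 carrying one integrated HIV-1 vpr copy, seeded at OD 0.01 in PMG+AL medium with 23 nL pinned compound. Grown 24 h at 30 degrees; viability read by BacTiter-Glo luminescence after 5 min.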
NS1 function inh: blocks influenza NS1 protein function | Potency, µM (top dose mostly 46.1 µM), inactives show at the highest dose activity, positive = more growth | AID 2326 | hit rate 0.4% among 270,000 | S. cerevisiae slowed by influenza A NS1, growth recovery by OD600; active means well fitted rising curve with a large enough effect; inconclusive means small, poorly fitted or top-dose-only effect; inactive means no such curve, though single readings can be large or run the other way; note: nearly all actives have a fitted effect of over 50% in size
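Compounds were scored for reversing the slow growth caused by influenza A NS1 in S. cerevisiae, measured by optical density at 600 nm. Assay medium contained 2% galactose at pH 6.0; NS1-free yeast of the same strain were the positive control.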
StopGo reporter: FMDV 2A StopGo reporter, luciferase signal; Potency, µM (highest dose often 57.9 µM), for inactives: at the highest dose signal change, negative = less light; human cells with a luciferase reporter of 2A StopGo recoding; control for the full effect not named in the record; hit rate 1.2% among 410,000; active = well fitted falling curve with a large enough effect; inconclusive = small, poorly fitted or top-dose-only effect; inactive = no such curve, though single readings can be large or run the other way; tested in HEK293T cells; note: % is set by controls: 0 for no effect and ±100 for the full control effect; nearly all actives have a fitted effect of over 45% in size; luciferase light after 4 h
Cruzain inh noDet: blocks cruzain activity in detergent-free assay; purified cruzain, Z-FR-AMC fluorescence, no detergent; hit rate 2.3% among 200,000; P25779; Potency, µM, for inactives: max response, negative = inhibition, hits mostly inhibitors; AID 1476;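 note: plate controls were enzyme without inhibitor for no effect and buffer without enzyme for full effect; nearly all actives have a fitted effect of over 40% in size; top concentration of the series not given in the record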
Target sequence (P25779 123-467 limits assumed): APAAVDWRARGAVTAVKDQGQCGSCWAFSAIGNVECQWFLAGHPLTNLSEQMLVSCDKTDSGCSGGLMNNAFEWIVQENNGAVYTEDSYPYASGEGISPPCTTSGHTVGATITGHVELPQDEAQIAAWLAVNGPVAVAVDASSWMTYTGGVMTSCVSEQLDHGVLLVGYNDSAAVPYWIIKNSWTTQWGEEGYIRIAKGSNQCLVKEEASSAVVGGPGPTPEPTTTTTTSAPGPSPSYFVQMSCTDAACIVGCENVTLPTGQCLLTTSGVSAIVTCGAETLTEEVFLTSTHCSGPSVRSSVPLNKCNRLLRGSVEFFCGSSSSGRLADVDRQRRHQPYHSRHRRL
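Detergent-free condition (0.00005% Triton X-100) in acetate buffer pH 5.5 with DTT. 1.5 nM enzyme and compound were pre-mixed 15 min, then 2 uM Z-FR-AMC substrate added; reaction progress from fluorescence change between first and third reads (60 s).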
Cruzain Triton: inhibitors of Trypanosoma cruzi cruzain with detergent. purified cruzain, Z-FR-AMC fluorescence, 0.01% Triton. hit rate 0.43% among 200,000. P25779. Potency, µM, for the others: max response, negative = inhibition, most hits filed as inhibitors. AID 1478;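 note: plate controls were neutral wells for no effect and buffer without enzyme for full effect; nearly all actives have a fitted effect of over 40% in size; top concentration of the series not given in the record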
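Detergent-containing run (0.01% Triton X-100) in acetate buffer pH 5.5 with 5 mM DTT: enzyme at 1.5 nM final, 15 min compound preincubation at room temperature, then 2 uM Z-FR-AMC substrate. Activity taken as 60 s fluorescence increase at 360/450 nm.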
MARV entry inh: Marburg virus entry inhibition | Marburg virus pseudotyped entry inhibition, cell reporter; control for the full effect not named in the record; about a third of the inactives were read at about 46 µM | Potency, µM (titrated, usually from 37.8 µM), inactives show top-dose activity change, negative = inhibition, hits mostly inhibitors | hit rate 1.8% among 300,000; active = well fitted inhibition curve with a large enough effect; inconclusive = small, poorly fitted or top-dose-only effect, or effect the other way; inactive = flat fitted curve, though single readings scatter; tested in HEK293 cells; about a fifth of its hits are not listed in these tables; note: % is set by controls: 0 for no effect and ±100 for the full control effect; luciferase read-out
LASV entry inh: blocks Lassa virus binding to or entry into cells; Lassa virus pseudotype entry inhibition, cell reporter; control for the full effect not named in the record; Potency, µM (titrated, usually from 37.9 µM), for the others: at the highest dose activity change, negative = inhibition, usual class: inhibitors; hit rate 1.2% among 300,000; active means well fitted inhibition curve with a large enough effect; inconclusive means small, poorly fitted or top-dose-only effect, or effect the other way; inactive means flat fitted curve, though single readings scatter; tested in HEK293 cells; note: % is set by controls: 0 for no effect and ±100 for the full control effect; nearly all actives have a fitted effect of over 50% in size; luciferase read-out
SARS PLpro yeast: blocks SARS-CoV papain-like protease in a yeast assay. S. cerevisiae expressing SARS-CoV PLpro, growth rescue; control for the full effect not named in the record. Potency, µM (doses to about 32.9 µM), without a hit: at the top dose activity, positive = growth rescue. hit rate 0.19% among 330,000; active means well fitted rising curve with a large enough effect; inconclusive means small, poorly fitted or top-dose-only effect; inactive means no such curve, though single readings can be large or run the other way; note: 0% is about no effect; nearly all actives have a fitted effect of over 55% in size; growth read by luminescence after 48 h
* hit, by the source's call; ? = inconclusive; nt = no result given; [ ] = remark or other dose. Unless noted, calls come from the whole dose curve; as a rule, active = well fitted curve in the direction sought with a large enough effect; inconclusive = small, poorly fitted or top-dose-only effect, or another doubt; inactive = no such curve, though single readings can be large; an effect the other way counts as inactive or inconclusive. Potency is the fitted concentration of half-maximal effect.

SMILES	RE007 growth inh	NS1 function inh	StopGo reporter	Cruzain inh noDet	Cruzain Triton	MARV entry inh	LASV entry inh	SARS PLpro yeast
O=C(Cn1c(C(F)(F)F)nc2ccccc21)OCC(=O)c1c[nH]c2ccccc12	nt	7%	-1%	?	-8.5%	39%	?	6%
CC(Sc1nnc(-c2ccco2)n1C)C(=O)N1C(C)CCCC1C (stereo not given)	-24%	0%	-12%	nt	nt	4%	3%	?
O=C(NCc1ccccc1)c1ccc(Cl)cc1	-14%	-3%	12%	nt	nt	nt	nt	0%
COc1cc(-c2cc(OC)c3c(C)oc(C)c3c(=O)c2)ccc1OC(=O)c1ccccc1F	nt	nt	?	?	-11%	11%[46.1 µM]	-6%[46.1 µM]	nt
CCOC(=O)c1ccc(NC(=S)Nc2cccc(C)n2)cc1	10%	20%	0%	?	-3.2%	?	?	23%
O=C(CN1CCOCC1)Nc1ncc(Cc2cccc(Cl)c2Cl)s1	32%	-17%	?	?	-4.6%	31%	-15%	-9%
c1ccc(-c2noc(CCC3CCCC3)n2)cc1	-16%	-2%	23%	nt	nt	7%[46.1 µM]	29%[46.1 µM]	0%
COc1cccc(N=C(N)N=C(N)N)c1	-1%	-2%	-17%	nt	nt	nt	nt	2%
COc1cccc(NC(=S)N(CCCN2CCCC(C)C2)Cc2cccs2)c1 (stereo not given)	-10%	1%	37%[activator]	nt	nt	-27%	?	1%
O=C(NCc1cccnc1)c1cccc(S(=O)(=O)N2CCCCC2)c1	-12%	-8%	-16%	3%	-2.0%	-7%	10%	-5%
O=C(NC1CCCC1)C(c1ccco1)N(C(=O)c1csnn1)c1ccccc1 (stereo not given)	-6%	27%	27%	nt	nt	-10%[46.1 µM]	-20%[46.1 µM]	0%
CCNC(=O)N1c2ccc(OC)cc2C(C)=CC1(C)C	-9%	-156%	8%	6%	-2.0%	-9%	-2%	?
CSc1ccc(/C=N/NC(=O)CN2CCN(Cc3ccccc3)CC2)cc1	1%	3%	-6%	-9%	-7.9%	-14%[46.1 µM]	-7%	10%
CCN1CCCC1CNC(=O)CS(=O)(=O)Cc1nc(-c2ccccc2C)oc1C (stereo not given)	5%	-12%	-17%	3%	4.0%	nt	nt	1%
CCCNC(=O)c1cc2n(n1)CCCN(Cc1ccc(F)cc1)C2=O	nt	nt	0%	5%	-0.4%	-28%[46.1 µM]	nt	nt
COc1ccc(CCc2ccnc3ccccc23)cc1	?	nt	5%	nt	nt	?	-11%[46.1 µM]	nt
Cc1cnc(C(=O)NC2CC(C)(C)Cc3c2cnn3-c2ccccc2)cn1 (stereo not given)	40%	-18%	-15%	nt	nt	?	?	-3%
CCn1nc(C)c(CN2CCC(C(=O)Nc3cccc(-c4cccc(Cl)c4)c3)CC2)c1C	8%	16%	-1%	nt	nt	nt	nt	1%
COc1ccccc1NC(=O)COc1ccc(Br)cc1CO	-21%	-3%	-18%	-17%	5.9%	-7%	-15%	2%
CC(OC(=O)CCSc1ccccc1)C(=O)Nc1ccc(S(N)(=O)=O)cc1 (stereo not given)	-22%	nt	-20%	nt	nt	-3%[46.1 µM]	23%	nt
CCOC(=O)c1c(C)[nH]c(C)c1S(=O)(=O)N(C)CC(=O)Nc1cc(C)ccc1OC	7%	-9%	8%	nt	nt	nt	nt	1%
CC(C)N(C(=O)CSc1nc2ccccc2n1Cc1ccccc1)C(C)C	15%	-1%	-27%	-10%	-7.4%	-3%[46.1 µM]	-22%	-2%
Cc1ccc(S(=O)(=O)N2CCCCC2C(=O)Nc2ccc(N(C)C)cc2)cc1 (stereo not given)	-10%	nt	-6%	nt	nt	0%[46.1 µM]	3%[46.1 µM]	3%
COCCCn1c(=N)c(C(=O)NCc2cccnc2)cc2c(=O)n3cccc(C)c3nc21	nt	nt	-12%	-5%	-12%	7%[46.1 µM]	11%[46.1 µM]	nt
COc1cccc(C(=O)Nc2cc3c(cc2C(=O)c2ccc(C)cc2)OCCO3)c1	nt	nt	-16%	0%	1.4%	?	14%[46.1 µM]	nt
CCCCOc1ccc(C(=O)NCC(=O)NCc2ccccn2)cc1	14%	nt	13%	nt	nt	-4%[46.1 µM]	0%	-6%
CCOCCCn1c(=O)c(NC(=O)c2ccc(OCC)cc2)c2n(c1=S)CCCCC2	-1%	-2%	13%	9%	-4.2%	-11%	11%	12%
CSc1ccccc1C(=O)NC1CCCN(c2ccc(C(F)(F)F)cn2)C1 (stereo not given)	20%	-6%	-11%	nt	nt	nt	nt	-19%
COc1ccccc1CN(C)C(=O)c1cccc(S(=O)(=O)N2CCN(Cc3ccccc3)CC2)c1	1%	nt	-3%	nt	nt	?	3%[46.1 µM]	-1%
Cc1ccccc1-n1c(=O)/c(=C\c2ccco2)s/c1=C(/C#N)C(=O)Nc1ccccc1	-7%	14%	-24%	?	-10%	-28%	-16%	?
Cc1ccc(NC(=O)c2oc3ccccc3c2NC(=O)c2cc3ccccc3o2)cc1	nt	nt	0%	?	0.4%	?	-2%[46.1 µM]	nt
Cc1cc(C)cc(NC(=O)Nc2ccccc2N2CCCCC2)c1	-2%	-2%	-29%	nt	nt	?	-16%	-1%
CCOC(=O)c1c(NC(=O)CSC(=S)N(C)C)sc(C)c1C	3%	-17%	4%	13%	-6.4%	4%	8%	24%
O=c1c2cc(Br)ccc2nc(-c2cccc(C(F)(F)F)c2)n1O	?	-125%	0%	1%	1.0%	?	?	-31%
CC1CCCN(S(=O)(=O)c2ccc3c(c2)c(=O)nc2ccc(Cl)cn23)C1 (stereo not given)	-6%	6%	-7%	nt	nt	15%[46.1 µM]	?	-1%
Cn1c(=O)oc2cc(S(=O)(=O)NCc3ccco3)ccc21	-3%	12%	16%	-2%	1.8%	nt	nt	0%
O=S(=O)(/N=C(/Nc1ccccc1)C(F)(F)F)c1ccccc1	16%	4%	-14%	-5%	1.9%	?	0%	-5%
CC(=O)N(C)N1c2ccccc2CCc2ccccc21	1%	nt	-29%	nt	nt	-10%[46.1 µM]	0%[46.1 µM]	-9%
O=C(Cc1nc2ccccc2[nH]1)c1ccc(Cl)cc1	?	-18%	47%[activator]	nt	nt	3%[46.1 µM]	nt	-2%
COc1ccc(-c2cnnc(N/N=C/c3ccc(O)c(O)c3)n2)cc1	-27%	3%	-11%	-5%	-11%	?	4.6µM*	28%
COc1ccc(OC)c(S(=O)(=O)Nc2ccccc2C(=O)N2CCCCC2)c1	15%	nt	20%	nt	nt	-16%	?	0%
COc1ccc2c(c1)C(c1ccc([N+](=O)[O-])cc1)=NNC(c1ccco1)=N2	-1%	-4%	nt	-12%	-3.0%	?	-23%	-10%
COc1ccc(-c2nn3c(=O)cc(CN4CCN(C(=O)c5ccc(C(C)(C)C)cc5)CC4)nc3s2)cc1	nt	nt	?	-2%	3.2%	nt	?	nt
O=C(COC(=O)c1ccccc1NC(=O)c1ccccc1)c1ccc([N+](=O)[O-])cc1	-18%	8%	0%	?	-5.2%	-12%	-4%	-2%
CC(=O)Nc1ccc(S(=O)(=O)N(Cc2ccccc2)c2ccccc2F)cc1	6%	0%	-14%	nt	nt	-8%[46.1 µM]	?	0%
c1ccc2cc(CN3CCOCC3)ccc2c1	-4%	8%	8%	-4%	1.6%	7%	13%	nt
CCOc1cc(C(=O)N2CCOCC2)ccc1OCc1ccccc1	2%	-3%	7%	5%	-3.3%	19%	-10%	-4%
O=C(OCc1ccccc1)c1cccc(-c2nnn(Cc3ccccc3)n2)c1	-5%	-6%	16%	3%	2.9%	-5%	?	-10%
O=C(c1cc2ccccn2n1)N1CCN(c2ccccn2)CC1	-6%	-6%	2%	-9%	0.7%	nt	nt	-6%
Cc1ccc(-c2nc(N)sc2CC(=O)OCC(=O)NCCC(C)C)cc1	8%	-3%	-7%	-24%	-13%	-1%	2%	14%
Cn1c(SCc2ccc(Br)cc2)nnc1-c1ccncc1	8%	-3%	nt	-8%	-0.7%	-19%	-10%	2%
COc1ccc(C(=O)NCC(=O)N/N=C/C(C)=C/c2ccco2)cc1OC	0%	16%	-22%	-10%	-9.6%	?	?	0%
CNC(=O)c1cccn1-c1ccsc1C(=O)OC	-4%	4%	-23%	-11%	1.5%	?	11%	-8%

An excerpt from above in order of formula weight, low to high:
SMILES	RE007 growth inh	NS1 function inh	StopGo reporter	Cruzain inh noDet	Cruzain Triton	MARV entry inh	LASV entry inh	SARS PLpro yeast
c1ccc2cc(CN3CCOCC3)ccc2c1	-4%	8%	8%	-4%	1.6%	7%	13%	nt
CNC(=O)c1cccn1-c1ccsc1C(=O)OC	-4%	4%	-23%	-11%	1.5%	?	11%	-8%
O=C(c1cc2ccccn2n1)N1CCN(c2ccccn2)CC1	-6%	-6%	2%	-9%	0.7%	nt	nt	-6%
CCOc1cc(C(=O)N2CCOCC2)ccc1OCc1ccccc1	2%	-3%	7%	5%	-3.3%	19%	-10%	-4%
COc1ccc2c(c1)C(c1ccc([N+](=O)[O-])cc1)=NNC(c1ccco1)=N2	-1%	-4%	nt	-12%	-3.0%	?	-23%	-10%
O=C(OCc1ccccc1)c1cccc(-c2nnn(Cc3ccccc3)n2)c1	-5%	-6%	16%	3%	2.9%	-5%	?	-10%
COc1ccc(C(=O)NCC(=O)N/N=C/C(C)=C/c2ccco2)cc1OC	0%	16%	-22%	-10%	-9.6%	?	?	0%
Cc1ccc(-c2nc(N)sc2CC(=O)OCC(=O)NCCC(C)C)cc1	8%	-3%	-7%	-24%	-13%	-1%	2%	14%
O=C(COC(=O)c1ccccc1NC(=O)c1ccccc1)c1ccc([N+](=O)[O-])cc1	-18%	8%	0%	?	-5.2%	-12%	-4%	-2%
COc1ccc(-c2nn3c(=O)cc(CN4CCN(C(=O)c5ccc(C(C)(C)C)cc5)CC4)nc3s2)cc1	nt	nt	?	-2%	3.2%	nt	?	nt

Screening data (PubChem)
